gsp antag: gsp mutant antagonism | AID 624288 | Potency, µM (highest dose often 76.9 µM), for the others: top-dose activity change, negative = inhibition, most hits filed as inhibitors | gsp-mutant cells, cAMP HTRF, 30 min; control for the full effect not named in the record | 340,000 compounds, 0.4% hits; active = falling curve of any shape with a large fitted effect; inconclusive = falling curve, mostly with a smaller effect; inactive = flat or rising curve; cell line not stated here;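 further: intracellular cAMP measured with PDE inhibitor Ro 20-1724 present during compound exposure; potency means the concentration at half of the fitted maximal effect; on the % scale 0 is the no-effect control and ±100 the full control effect; nearly all actives have a fitted effect of over 65% in size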
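Measurement of cellular cAMP by homogeneous time-resolved fluorescence following a 30 min compound exposure at 37C. The PDE inhibitor […] was present throughout; the assay buffer was DPBS with 0.05% BSA and 0.005% Tween 20.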
TRPML1 inh: inhibitors of human TRPML1 channel; activity change, negative = inhibition, % (test concentration not listed); 390,000 compounds, 0.02% hits; AID 624415; Q9GZU1; TRPML1-inducible cells, Ca2+ dye fluorescence, FDSS; stronger effect = lower value; inhibition of EC80 agonist-evoked calcium signal; in the data active means activity change below about -50%; inconclusive means about -30% to -50%; inactive means above about -30%;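 further: stimulus is agonist 54-4 at its EC80 concentration; on the % scale 0 is the no-effect control and ±100 the full control effect; compound concentration not given in the record; the text of the record puts the active cut at -80%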
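TRPML1-DL cells, Tet-induced overnight (~16 h, 37 °C) at 1,500 cells/well, were loaded with Ca8 no-wash dye plus quencher for 45-90 min at room temperature. Compounds were pinned during FDSS kinetic reading; agonist 54-4 at EC80 (4 uM final) then added.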
gsp agonist: activates gsp, the McCune-Albright syndrome mutation; gsp mutant cells, cAMP HTRF, 30 min; control for the full effect not named in the record; Potency, µM (top dose mostly 76.9 µM), without a hit: at the highest dose activation (cAMP increase), most hits filed as activators; 340,000 compounds, 0.13% hits; AID 624287; active = well fitted activation curve with a large enough effect; inconclusive = small, poorly fitted or top-dose-only effect, or another doubt; inactive = no such curve, though single readings can be large or run the other way; cell line not stated here;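 further: phosphodiesterase inhibitor Ro 20-1724 added with compounds to block cAMP breakdown; potency means the concentration at half of the fitted maximal effect; nearly all actives have a fitted effect of over 60% in size; about a fifth of the inactives were tested at one dose only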
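Cells in DMEM/10% FBS with G418 were pretreated with compounds in DMSO plus […] (300 uM stock) for 30 min at 37C. cAMP was measured by HTRF (cAMP-d2 plus anti-cAMP antibody-K) after 30 min at room temperature.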
Menin-MLL FL inh: displaces fluorescein MLL peptide from human menin | FP activity change, % at 61.4 µM | Fluorescence polarization, fluorescein-MLL peptide displacement from menin | AID 1766 | 290,000 tested, under 10 active; inconclusive = falling polarisation curve, or a change in total fluorescence; inactive = total fluorescence flat and polarisation flat or rising; no compound was filed as active; the % refers to the polarisation; negative = inhibition;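 further: % of control where 0% means no effect; inhibitors lower the polarisation; unlabelled MLL peptide was the positive control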
TRPV1 PAM: enhances activation of the human vanilloid receptor TRPV1. 320,000 compounds, 0.02% hits. potentiation, % at 8.33 µM. Q8NER1. TRPV1-expressing cells, Fluo-8 calcium influx, capsaicin EC20 potentiation; host cell line not named in the record; control for the full effect not named in the record; active means potentiation above 80%; inconclusive means 30% to 80%; inactive means below 30%; further: 0% is about no effect
Target sequence (Q8NER1 whole entry, looked up): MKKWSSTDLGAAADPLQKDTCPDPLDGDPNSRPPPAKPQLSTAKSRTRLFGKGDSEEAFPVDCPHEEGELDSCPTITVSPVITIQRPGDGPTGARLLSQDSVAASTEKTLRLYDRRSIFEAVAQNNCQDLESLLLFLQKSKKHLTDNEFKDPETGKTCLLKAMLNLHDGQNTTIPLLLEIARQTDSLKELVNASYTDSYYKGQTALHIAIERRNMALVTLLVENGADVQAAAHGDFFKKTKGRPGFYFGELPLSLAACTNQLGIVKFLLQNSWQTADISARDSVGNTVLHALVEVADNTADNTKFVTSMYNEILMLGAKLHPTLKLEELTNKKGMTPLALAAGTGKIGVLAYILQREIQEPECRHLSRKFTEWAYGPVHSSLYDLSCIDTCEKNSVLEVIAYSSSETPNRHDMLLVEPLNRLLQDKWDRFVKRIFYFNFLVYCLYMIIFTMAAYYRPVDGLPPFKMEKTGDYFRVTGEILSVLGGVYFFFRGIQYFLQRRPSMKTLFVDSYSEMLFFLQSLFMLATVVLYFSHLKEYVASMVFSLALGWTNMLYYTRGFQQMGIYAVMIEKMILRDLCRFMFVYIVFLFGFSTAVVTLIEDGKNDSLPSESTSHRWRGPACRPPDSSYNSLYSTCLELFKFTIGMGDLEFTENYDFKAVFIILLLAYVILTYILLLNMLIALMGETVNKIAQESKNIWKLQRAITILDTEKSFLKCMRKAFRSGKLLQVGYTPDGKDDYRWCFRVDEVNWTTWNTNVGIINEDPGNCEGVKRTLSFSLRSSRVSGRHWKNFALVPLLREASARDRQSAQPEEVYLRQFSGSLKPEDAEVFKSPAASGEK
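TRPV1-expressing cells were cultured overnight at 35.5C and loaded with Fluo-8 calcium dye for 40 to 90 min at room temperature. After a 10 s baseline, compound was added and calcium influx was read kinetically for 3 min (ex 480/em 520 nm).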
ClpP mod: qHTS Assay for Activators of ClpP; ATP-dependent Clp protease proteolytic subunit (Bacillus subtilis (strain 168)), P80244; purified B. subtilis ClpP, FRET peptide cleavage, 20 min; Potency, µM (series often up to 57.5 µM), for the others: at the top dose activity change, negative = active; 340,000 compounds, 1.9% hits; active = well fitted falling curve with a large enough effect; inconclusive = small, poorly fitted or top-dose-only effect; inactive = no such curve, though single readings can be large or run the other way; further: potency means the concentration at half of the fitted maximal effect; the source files actives as falling curves though it sought activators and does not explain the sign; nearly all actives have a fitted effect of over 65% in size; many hits overshoot -100%
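FRET quenching reversal measured ClpP activation: 10 microg/mL B. subtilis ClpP at pH 8 with the FRET-FV decapeptide, read at 430 nm after 320 nm excitation. The 20-min minus 0-min signal was scaled between DMSO/no-enzyme wells and ADEP (5.8 microM final).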
Sfp PPTase inh: Sfp phosphopantetheinyl transferase inhibition; Q9F4F7; AID 1490; Biochemical Sfp PPTase activity, qHTS; 310,000 compounds, 3.5% hits; Potency, µM, for inactives: max response, negative = inhibition, hits mostly inhibitors; active means well fitted inhibition curve with a large enough effect; inconclusive means small, poorly fitted or top-dose-only effect, or another doubt; inactive means no such curve, though single readings can be large or run the other way;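 further: the enzyme is Sfp with the accession as filed and its product quenches rhodamine fluorescence; potency means the concentration at half of the fitted maximal effect; 0% = enzyme reaction without inhibitor and -100% = no enzyme wells; top concentration of the series not given in the record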
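Reaction rates are the 30-min fluorescence difference (ex 525, em 598 nm) in wells containing 15 nM Sfp, 5 uM rhodamine-CoA and 12.5 uM BHQ-2-YbbR at pH 7.6 with 10 mM MgCl2.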
Numbers without * were called inactive; ? = inconclusive; nt = not tested or not shown; [ ] = remark or other dose.

SMILES | gsp antag | TRPML1 inh | gsp agonist | Menin-MLL FL inh | TRPV1 PAM | ClpP mod | Sfp PPTase inh
C[N+]1(CC(O)COc2ccccc2)CCN(C(=O)c2ccc([N+](=O)[O-])cc2)CC1 (stereo not given) | 10% | -8 | 4% | -1.0 | 2 | -6.1% | 6%
CCOC(=O)N1CCC(NC(=O)C2CCN(S(=O)(=O)c3cnc[nH]3)CC2)CC1 | 0% | 0 | 1% | -1.0 | -1 | -1.8% | 1%
Cc1ccc(C)c(S(=O)(=O)N2CCN(C(=O)[C@H](C)N3C(=O)C4CC=CCC4C3=O)CC2)c1 (stereo not given in full) | -7% | -13 | 14% | nt | 8 | 0.2% | nt
Nc1cc2c3ccccc3ccc2c2ccccc12 | -15% | -10 | 11%[15.4 µM] | nt | nt | 0.0% | nt
COc1ccc(OC)c(N/C=C/C(=O)c2ccccc2)c1 | -16% | 13 | 7% | 13 | -2 | nt | -20%
O=C(Nc1cccc(Cl)c1)c1cc(S(=O)(=O)N2CCCCC2)c[nH]1 | -2% | 1 | 3% | 0.8 | -8 | 2.1% | 18%
Cc1cccc(NC(=O)CSc2nc3sc(C)cc3c(=O)n2C)c1 | -8% | -7 | 17%[15.4 µM] | nt | nt | nt | nt
CC(=O)NS(=O)(=O)c1ccc(NC(=S)NC(=O)CC(C)C)cc1 | -2% | 24 | 11%[15.4 µM] | -3.3 | 0 | nt | 16%
Cc1ccc(NC(=O)c2cc(C)nc3ccccc23)cc1 | 2% | 7 | -11% | -0.6 | 20 | -1.4% | 3%
COc1cc(C(=S)N2CCCC2)cc(Cl)c1OCC(=O)Nc1ccc(C)cc1C | ? | 7 | 5%[15.4 µM] | 4.1 | 5 | 0.0% | ?
O=C(NCc1cccnc1)C1CC(=O)N(c2ccc(F)cc2)C1 (stereo not given) | -2% | -1 | -14% | 1.5 | 1 | -0.6% | -9%
Cc1onc(-c2ccccc2Cl)c1C(O)c1ccc(F)cc1 (stereo not given) | 5% | 10 | -3%[15.4 µM] | 4.9 | -7 | -0.4% | 1%
COc1ccc(-n2nc(C(=O)NCC(=O)N3CCN(c4ccccn4)CC3)c3ccccc3c2=O)c(OC)c1 | 0% | -16 | 8%[15.4 µM] | nt | nt | nt | nt
Nc1nc(NS(=O)(=O)c2ccc(Cl)cc2)nn1-c1ccccc1 | 4% | 18 | 4%[15.4 µM] | -0.8 | -24 | nt | 11%
O=C(NC1CCCc2c1cnn2-c1ccccc1F)c1ccncc1 (stereo not given) | nt | 5 | -49%[inhibitor] | nt | nt | 0.0% | nt
COc1ccc(C(CNC(=O)c2cc(C)on2)N(C)C)cc1 (stereo not given) | 7% | 6 | 11%[15.4 µM] | -0.4 | 1 | -1.1% | -2%
CCC(=O)N1CCc2cc(S(=O)(=O)CCC(=O)NCCC3=CCCCC3)ccc21 | -26% | -9 | -10% | 0.5 | nt | -1.7% | 12%

Compounds listed so far that contain sulfur:
SMILES | gsp antag | TRPML1 inh | gsp agonist | Menin-MLL FL inh | TRPV1 PAM | ClpP mod | Sfp PPTase inh
CCOC(=O)N1CCC(NC(=O)C2CCN(S(=O)(=O)c3cnc[nH]3)CC2)CC1 | 0% | 0 | 1% | -1.0 | -1 | -1.8% | 1%
Cc1ccc(C)c(S(=O)(=O)N2CCN(C(=O)[C@H](C)N3C(=O)C4CC=CCC4C3=O)CC2)c1 (stereo not given in full) | -7% | -13 | 14% | nt | 8 | 0.2% | nt
O=C(Nc1cccc(Cl)c1)c1cc(S(=O)(=O)N2CCCCC2)c[nH]1 | -2% | 1 | 3% | 0.8 | -8 | 2.1% | 18%
Cc1cccc(NC(=O)CSc2nc3sc(C)cc3c(=O)n2C)c1 | -8% | -7 | 17%[15.4 µM] | nt | nt | nt | nt
CC(=O)NS(=O)(=O)c1ccc(NC(=S)NC(=O)CC(C)C)cc1 | -2% | 24 | 11%[15.4 µM] | -3.3 | 0 | nt | 16%
COc1cc(C(=S)N2CCCC2)cc(Cl)c1OCC(=O)Nc1ccc(C)cc1C | ? | 7 | 5%[15.4 µM] | 4.1 | 5 | 0.0% | ?
Nc1nc(NS(=O)(=O)c2ccc(Cl)cc2)nn1-c1ccccc1 | 4% | 18 | 4%[15.4 µM] | -0.8 | -24 | nt | 11%
CCC(=O)N1CCc2cc(S(=O)(=O)CCC(=O)NCCC3=CCCCC3)ccc21 | -26% | -9 | -10% | 0.5 | nt | -1.7% | 12%

High-throughput results as filed in PubChem.
